Screening results as filed in PubChem.
TRPV1 potentiator – potentiators of human vanilloid receptor 1 (TRPV1) | hit rate 0.02% among 320,000 | Q8NER1 | TRPV1-expressing cells, Fluo-8 calcium influx, capsaicin EC20 potentiation; host cell line not named in the record; control for the full effect not named in the record | potentiation, % at 8.33 µM | AID 540277; active means potentiation above 80%; inconclusive means 30% to 80%; inactive means below 30%; further: 0% is about no effect
Target sequence (Q8NER1 whole entry, looked up): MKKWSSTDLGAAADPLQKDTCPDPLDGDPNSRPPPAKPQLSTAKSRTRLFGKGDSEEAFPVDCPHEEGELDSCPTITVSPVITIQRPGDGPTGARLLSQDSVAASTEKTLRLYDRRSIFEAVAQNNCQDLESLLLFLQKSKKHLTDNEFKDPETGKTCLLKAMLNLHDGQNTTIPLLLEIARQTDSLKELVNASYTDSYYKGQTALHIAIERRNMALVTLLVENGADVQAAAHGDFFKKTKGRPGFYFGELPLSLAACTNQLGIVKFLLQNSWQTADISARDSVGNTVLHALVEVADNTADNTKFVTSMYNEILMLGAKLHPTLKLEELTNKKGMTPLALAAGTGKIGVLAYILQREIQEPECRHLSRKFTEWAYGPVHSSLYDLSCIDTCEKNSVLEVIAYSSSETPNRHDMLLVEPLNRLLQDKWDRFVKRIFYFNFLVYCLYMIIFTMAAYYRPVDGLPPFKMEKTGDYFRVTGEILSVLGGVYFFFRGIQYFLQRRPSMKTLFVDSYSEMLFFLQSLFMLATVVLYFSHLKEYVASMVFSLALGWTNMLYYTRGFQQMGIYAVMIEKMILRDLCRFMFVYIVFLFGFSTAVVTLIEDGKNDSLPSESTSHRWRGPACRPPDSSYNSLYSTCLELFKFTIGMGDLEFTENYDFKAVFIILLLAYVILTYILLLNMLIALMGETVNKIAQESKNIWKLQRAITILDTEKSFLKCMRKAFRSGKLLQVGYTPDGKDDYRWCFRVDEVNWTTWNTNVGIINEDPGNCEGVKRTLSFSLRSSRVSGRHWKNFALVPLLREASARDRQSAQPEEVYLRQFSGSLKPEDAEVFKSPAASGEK
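Fluo-8 calcium influx in TRPV1-expressing cells, kinetic read (ex 480/em 520 nm). Compound added and read 3 min for agonist activity, followed by capsaicin at EC20 final and 2 min further read for enhancement.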
gsp ag – agonists of gsp mutant (McCune-Albright syndrome). gsp mutant cells, cAMP HTRF, 30 min; control for the full effect not named in the record. Potency, µM (doses to about 76.9 µM), inactives show at the highest dose activation (cAMP increase), actives largely listed as activators. hit rate 0.13% among 340,000; active = well fitted activation curve with a large enough effect; inconclusive = small, poorly fitted or top-dose-only effect, or another doubt; inactive = no such curve, though single readings can be large or run the other way; cell line not stated here;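 further: phosphodiesterase inhibitor Ro 20-1724 added with compounds to block cAMP breakdown; potency means the concentration at half of the fitted maximal effect; nearly all actives have a fitted effect of over 60% in size; about a fifth of the inactives were tested at one dose only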
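Cells stably selected in G418 were plated at 2000/well, grown 16-24 hr, then given compounds in DMSO with the PDE inhibitor […] (300 uM solution added) for 30 min at 37C; cAMP was read by HTRF.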
Sfp PPTase inh – Sfp phosphopantetheinyl transferase inhibition; Q9F4F7; Biochemical Sfp PPTase activity, qHTS; Potency, µM, for inactives: max response, negative = inhibition, hits mostly inhibitors; hit rate 3.5% among 310,000; AID 1490; active means well fitted inhibition curve with a large enough effect; inconclusive means small, poorly fitted or top-dose-only effect, or another doubt; inactive means no such curve, though single readings can be large or run the other way;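 further: the enzyme is Sfp with the accession as filed and its product quenches rhodamine fluorescence; potency means the concentration at half of the fitted maximal effect; 0% = enzyme reaction without inhibitor and -100% = no enzyme wells; top concentration of the series not given in the record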
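Compounds were incubated with enzyme (final 15 nM) for 15 min at room temperature before substrate addition started the reaction. Fluorescence at 525 nm excitation, 598 nm emission was recorded immediately and after 30 minutes.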
ClpP mod – qHTS Assay for Activators of ClpP; ATP-dependent Clp protease proteolytic subunit (Bacillus subtilis (strain 168)), P80244; purified B. subtilis ClpP, FRET peptide cleavage, 20 min; Potency, µM (top dose mostly 57.5 µM), for the others: at the highest dose activity change, negative = active; hit rate 1.9% among 340,000; AID 651965, 2013; active = well fitted falling curve with a large enough effect; inconclusive = small, poorly fitted or top-dose-only effect; inactive = no such curve, though single readings can be large or run the other way; further: potency means the concentration at half of the fitted maximal effect; the source files actives as falling curves though it sought activators and does not explain the sign; nearly all actives have a fitted effect of over 65% in size; many hits overshoot -100%
Target sequence (P80244 whole entry, looked up): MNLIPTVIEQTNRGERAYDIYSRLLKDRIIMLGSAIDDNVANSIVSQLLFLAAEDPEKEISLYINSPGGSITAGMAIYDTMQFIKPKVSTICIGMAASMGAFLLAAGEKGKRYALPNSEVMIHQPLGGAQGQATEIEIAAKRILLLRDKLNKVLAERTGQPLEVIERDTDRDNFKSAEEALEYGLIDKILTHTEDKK
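ClpP 10 microg/mL final, pH 8 Tris/KCl buffer with BSA, glycerol, Tween-20; compound pinned in; FRET-FV substrate; RT 20 min; Ex320/Em430; ΔFRET vs ADEP 5.8 microM, DMSO, no enzyme.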
gsp antag – antagonizes gsp, the McCune-Albright syndrome mutation. gsp-mutant cells, cAMP HTRF, 30 min; control for the full effect not named in the record. Potency, µM (series often up to 76.9 µM), for inactives: at the top dose activity change, negative = inhibition, usual class: inhibitors. hit rate 0.4% among 340,000. AID 624288; active = falling curve of any shape with a large fitted effect; inconclusive = falling curve, mostly with a smaller effect; inactive = flat or rising curve; cell line not stated here;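 further: intracellular cAMP measured with PDE inhibitor Ro 20-1724 present during compound exposure; potency means the concentration at half of the fitted maximal effect; on the % scale 0 is the no-effect control and ±100 the full control effect; nearly all actives have a fitted effect of over 65% in size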
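Cells in G418 medium, seeded 16-24 h, 37C; buffer exchange to DPBS + 1 mM CaCl2, 0.5 mM MgCl2, 0.05% BSA; cpds in DMSO + […] (300 uM stock), 30 min 37C; HTRF cAMP detection.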
TRPML1 blocker – human mucolipin-1 channel inhibition | hit rate 0.02% among 390,000 | TRPML1-inducible cells, Ca2+ dye fluorescence, FDSS; active compounds read low; inhibition of EC80 agonist-evoked calcium signal | AID 624415 | activity change, negative = inhibition, % (test concentration not listed); in the data active means activity change below about -50%; inconclusive means about -30% to -50%; inactive means above about -30%;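 further: stimulus is agonist 54-4 at its EC80 concentration; on the % scale 0 is the no-effect control and ±100 the full control effect; compound concentration not given in the record; the text of the record puts the active cut at -80%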
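TRPML1-DL cells, Tet-induced overnight (~16 h, 37 °C) at 1,500 cells/well, were loaded with Ca8 no-wash dye plus quencher for 45-90 min at room temperature. Compounds were pinned during FDSS kinetic reading; agonist 54-4 at EC80 (4 uM final) then added.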
Menin MLL FP FL – displaces fluorescein MLL peptide from human menin | Fluorescence polarization, fluorescein-MLL peptide displacement from menin | FP activity change, % at 61.4 µM | 290,000 tested, under 10 active; inconclusive = falling polarisation curve, or a change in total fluorescence; inactive = total fluorescence flat and polarisation flat or rising; no compound was filed as active; the % refers to the polarisation; negative = inhibition;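 further: % of control where 0% means no effect; inhibitors lower the polarisation; unlabelled MLL peptide was the positive control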
The depositor's hits bear a star; ? = inconclusive; . = not tested or not shown; & = joins results of further samples; [ ] = remark or other dose. Random draw from the library; 4.9% or so of the library scored in one or more.

SMILES | TRPV1 potentiator | gsp ag | Sfp PPTase inh | ClpP mod | gsp antag | TRPML1 blocker | Menin MLL FP FL
O=c1cc(CO)oc(C(Nc2ccccn2)c2ccc(C(F)(F)F)cc2)c1O (centres undefined) | -14 | 23% | ? | -1.3% | -8% | -15 | 2.7
COc1ccc(N2C(=O)CC(Sc3nnnn3-c3ccc(F)cc3)C2=O)cc1 (centres undefined) | 0 | 16% | 16µM* | . | -16% | 21 | 1.1
OCCN(Cc1ccccc1)Cc1ccc(C(F)(F)F)cc1 | -21 | 4% | -14% | 0.6% | 9% | 34 | 0.3
COc1ccc(N)cc1NC(=O)CN1CCCC1 | -10 | -9%[15.4 µM] | -5% | 1.6% | -3% | 9 | -1.3
Cc1ccnc(NC(=O)C23CC4CC(CC(C4)C2)C3)c1 | -21 | -4% | 5% | -2.1% | 7% | 51 | -0.4
CNc1ccccc1C(=O)OCC(=O)Nc1ccc2c(c1)OCO2 | 18 | -5%[15.4 µM] | . | 28µM* | 4% | -13 | .
Cn1c(=O)c2c(nc(SCCCC#N)n2Cc2c(F)cccc2Cl)n(C)c1=O | 17 | -12% | 16% | 0.0% | -9% | 5 | 2.1
CSc1ccccc1NC(=O)CN1CCN(Cc2ccccc2)CC1 | -3 | . | 16% | . | . | . | 2.2
Cc1ccc(S(=O)(=O)N(C)C[C@@H]2OCc3cnnn3CCCC(=O)N([C@@H](C)CO)C[C@H]2C)cc1 | . | -33%[inhibitor] | . | 1.0% | . | 11 | .
Cc1ccc(C(=O)CN2/C(=C(\O)c3ccccc3)C(=O)c3ccccc3S2(=O)=O)c(C)c1 | 13 | 6% | 36%[activator] | -2.8% | ? | 1 | 6.3
COc1ccc(C(=O)Nc2cc(OC)ccc2OC)cc1 | -7 | -8% | 4% | -0.1% | -6% | 0 | -0.3
O=[N+]([O-])c1ccccc1N/N=C1\CC2CC=CC12 (centres undefined) | -7 | -116%[inhibitor] | -11% | 0.6% | -17% | -12 | 5.1
CC(=O)Nc1ccc(OCc2ccccc2)cc1[N+](=O)[O-] | . | ? | . | 1.9% | 1% | 7 | .
CCOC(=O)c1cnc2ccccc2c1Nc1ccc2c(c1)OCCO2 | 16 | -16%[15.4 µM] | -16% | -1.6% | -17% | 4 | -0.8
CCOC(=O)c1ccccc1NC(=O)CSc1nc2c(c(=O)n(C)c(=O)n2C)n1C | 19 | . | 12% | . | . | . | -0.3
Cc1ccc(CC(=O)NC2CCCc3ccccc32)cc1C (centres undefined) | -14 | 0%[15.4 µM] | 5% | . | -3% | 15 | 3.7
Cn1nnnc1SCC(=O)Nc1ccc(Oc2ccc(Cl)cc2)cc1 | 8 | 0% | 10% | 0.8% | 6% | 17 | 4.9
COc1cccc(C(c2nnnn2CC2CCCO2)N2CCN(C(=O)c3ccco3)CC2)c1OC (centres undefined) | 0 | -2% | 7% | . | -7% | 9 | -1.1
COc1ccc(N2C(=O)NC(NC(=O)c3ccncc3)(C(F)(F)F)C2=O)cc1 (centres undefined) | -1 | 5% | 18% | 0.8% | 16% | -9 | -2.0
CN(CC1CCCCO1)C(=O)c1cc(COc2ccc(F)cc2Cl)on1 (centres undefined) | -5 | -6% | 3% | 0.5% | -13% | 12 | 16
O=C(COC(=O)c1cc(=O)[nH]c2ccccc12)NCc1ccc(Cl)cc1 | -5 | 10% | . | -20% | -5% | -8 | .
COc1ccc(S(=O)(=O)CCC(=O)N2CCN(c3ccc(F)cc3)CC2)cc1 | -1 | -64%[inhibitor] | 16% | -0.3% | -2% | 0 | 5.1
c1ccc(-c2cc(-c3cc(-c4ccccc4)on3)no2)cc1 | . | -9% | . | 1.7% | . | -4 | .
O=C(Cc1cccc([N+](=O)[O-])c1)Nc1cccc(C(=O)N2CCOCC2)c1 | . | ? | . | -0.4% | 8% | -9 | .
O=C(CN1C(=O)c2ccc([N+](=O)[O-])cc2C1=O)Nc1nccs1 | -1 | -9%[15.4 µM] | -27% | . | -7% | -13 | 1.5
COC(=O)c1cccc(NC(N)=S)c1 | -3 | 10% | 20% | . | 6% | 4 | 0.3
CCCc1nnc(NC(=O)CCS(=O)(=O)Cc2ccccc2)s1 | 1 | 9%[15.4 µM] | -12% | . | 8% | 17 | 3.4
COc1ccccc1CNC(=O)[C@H](NC(=O)C1CCN(C(=O)[C@@H](N)CCSC)CC1)C(C)C | -4 | . | -2% | 1.1% | 1% | . | -0.9
Cn1ncc2c(NCCc3ccccc3)nc(Cl)nc21 | . | -5%[15.4 µM] | . | -5.1% | 6% | 2 | .
CC(Oc1ccccc1)C(=O)Nc1nnc(S(=O)(=O)Nc2ccccc2)s1 (centres undefined) | 5 | -10% | 33%[activator] | 0.0% | -22% | 13 | 1.1
NNC(=S)NCc1ccccc1 | 8 | -13%[15.4 µM] | -6% | . | 8% | 5 | -0.6
O=C(NCCN1CCOCC1)c1cc(-c2cccc(Cl)c2)on1 | 4 | -4%[15.4 µM] | -2% | . | 1% | -3 | -2.1
CCc1ccc(C2NC(=S)NC3=C2C(=O)N(c2ccccc2OC)C(c2ccc(CC)cc2)N3)cc1 (centres undefined) | -5 | -4% | -12% | -2.2% | 3% | -4 | -2.0
CC1(C)CN(c2ccccc2)N(C(=O)c2ccc(F)cc2)C1=O | . | ? | 12% | 0.4% | -4% | -2 | 0.5
O=C(NCCCn1ccnc1)c1cc(Cl)cc(Cl)c1 | -4 | 6% | 23% | . | 13% | -9 | 3.4
COc1ccc(OCCCC(=O)Nc2ncn[nH]2)cc1 | 20 | -2%[15.4 µM] | 6% | . | 4% | -4 | 3.4
CCN(CC)S(=O)(=O)c1cc(-c2nnc(-c3ccc(Br)cc3)o2)ccc1Cl | -15 | ? | 11% | ? | -6% | 73 | 0.6
CCn1c(SCC(=O)NCc2ccccc2)nnc1-c1c[nH]c2ccccc12 | 12 | -35%[inhibitor] | 14% | -1.2% | -1% | -13 | -0.9
COC/C=C/C1=CC2=CC(=O)C(C)(OC(=O)C3CCCC3)C(=O)C2=CO1 (centres undefined) | -6 | 29% | 79µM* | -3.1% | 2% | -7 | ?
COc1cc2ccc(-c3ccc4ccccc4n3)cc2cc1OC | . | 29% | . | 3.8% | . | -6 | .
O=C(NCCN1CCOCC1)c1ccc2c(c1)N(Cc1ccccc1)C(=O)CS2 | -13 | -74%[inhibitor] | -7% | -0.8% | 5% | 10 | 1.7
Cc1ccc(-c2nc3ccccn3c2Nc2ccccc2)o1 | -7 | -6%[15.4 µM] | 20µM* | 0.7% | -22% | 17 | 0.9
O=C(c1ccc(Cl)c(S(=O)(=O)N2CCCCC2)c1)N1CCCC1 | -16 | 1%[15.4 µM] | 9% | -2.1% | 3% | 18 | 1.9
CCOc1ccc(CCNC(=O)COC(=O)C2=NNC(=O)CC2)cc1OCC | -7 | -18% | . | -5.2% | 12% | 15 | .
Cc1ccc(N(Cc2cc3ccccc3[nH]c2=O)C(=O)c2cccs2)cc1C | -5 | 5%[15.4 µM] | 15% | . | -16% | 26 | 4.6

4 structures from above, ordered by heavy-atom count, smallest number first:
SMILES | TRPV1 potentiator | gsp ag | Sfp PPTase inh | ClpP mod | gsp antag | TRPML1 blocker | Menin MLL FP FL
O=C(NCCCn1ccnc1)c1cc(Cl)cc(Cl)c1 | -4 | 6% | 23% | . | 13% | -9 | 3.4
c1ccc(-c2cc(-c3cc(-c4ccccc4)on3)no2)cc1 | . | -9% | . | 1.7% | . | -4 | .
CSc1ccccc1NC(=O)CN1CCN(Cc2ccccc2)CC1 | -3 | . | 16% | . | . | . | 2.2
CCOC(=O)c1ccccc1NC(=O)CSc1nc2c(c(=O)n(C)c(=O)n2C)n1C | 19 | . | 12% | . | . | . | -0.3

The listing continues.
SMILES | TRPV1 potentiator | gsp ag | Sfp PPTase inh | ClpP mod | gsp antag | TRPML1 blocker | Menin MLL FP FL
c1ccc(CC(Cc2ccccc2)c2ccccn2)cc1 | . | -115%[inhibitor] | . | -1.3% | -5% | 8 | .
CCN=c1scc(-c2ccco2)n1/N=C/c1ccc(OC)c(O)c1 | 23 | -21% | 50µM* | -3.4% | 4% | 5 | 1.7
CCSc1oc(-c2cccs2)nc1S(=O)(=O)c1ccccc1 | -2 | 15% | ? | -24% | -10% | 1 | 1.0
CCOC(=O)c1cccc(P(=O)(C(C)(C)C)C(C)(C)C)c1 | -5 | -3% | 15% | -1.7% | -10% | -12 | 1.0
O=c1c2ccccc2nc(SCc2nnc(-c3ccccc3Br)o2)n1Cc1ccco1 | 10 | -1% | -5% | 0.0% | -3% | -7 | 1.6
CCOC(=O)c1cnc2ccc(Br)cc2c1NCC(C)O (centres undefined) | -10 | 7% | 14% | -1.4% | 12% | -10 | -1.0
CCc1ccc(Nc2nnc(SCC(=O)NC(=O)c3cccn3C)s2)cc1 | -11 | -14% | -10% | -0.9% | 11% | 3 | 5.2
C/C(=N\NC(=O)C1CCCC1)c1ccc(Cl)cc1 | -5 | -54%[inhibitor] | 11% | 1.9% | 8% | -6 | .
CC1CCCN1CC#CC(O)(c1ccccc1)c1ccccc1 (centres undefined) | 0 | 0%[15.4 µM] | 10% | . | 3% | -14 | 2.8
Cc1cc(=O)oc2cc(OCC(=O)Nc3cccnc3)ccc12 | . | -35%[inhibitor] | . | . | -12% | 7 | .
CCCn1c(-c2ccc(OC)cc2)nc2ccccc21 | 11 | 17% | 6% | ? | -19% | -5 | 1.6
CCCN1C2=NCCN2c2ccccc21 | -7 | -28% | 15% | -7.3% | -1% | -2 | 6.7
COc1ccc(N2CCN(CC(O)COc3cc(C)ccc3C)CC2)cc1 (centres undefined) | 11 | 14% | -10% | -4.9% | 2% | -5 | 2.0
C[C@@H](C(=O)CC(=O)OC(C)(C)C)[C@@H](O)c1ccccc1 | -3 | 8% | 11%&8% | 0.4% | 7% | 3&18 | 0.7&1.4
